2A firefly: lowers the firefly signal of an FMDV 2A StopGo reporter | Potency, µM (titrated, usually from 57.5 µM), inactives show at the highest dose signal change, negative = less light | AID 1745856 | 120,000 tested, 0.23% active | HEK cells with a luciferase reporter of 2A StopGo recoding; active = well fitted falling curve with a large enough effect; inconclusive = small, poorly fitted or top-dose-only effect; inactive = no such curve, though single readings can be large or run the other way; further: nearly all actives have a fitted effect of over 60% in size; overnight with compound
StopGo RLuc: lowers the Renilla signal of an FMDV 2A StopGo reporter; 120,000 tested, 0.32% active; AID 1745857; Potency, µM (top dose mostly 57.5 µM), without a hit: top-dose signal change, negative = less light; HEK cells with a luciferase reporter of 2A StopGo recoding; active means well fitted falling curve with a large enough effect; inconclusive means small, poorly fitted or top-dose-only effect; inactive means no such curve, though single readings can be large or run the other way; further: nearly all actives have a fitted effect of over 55% in size; overnight with compound
* marks the source's active call; other numbers are inactive results; ? = inconclusive; [ ] = remark or other dose. On the % scale 0 is the no-effect control and ±100 the full control effect; potency means the concentration at half of the fitted maximal effect.

molecule,2A firefly,StopGo RLuc
O=C(Nc1ccc(F)cc1)c1ccc(Cn2nc(N3CCN(c4ccccc4)CC3)ccc2=O)o1,?,?
CCOc1cccc(-c2cc(C(=O)O)c3ccc(C)c(C)c3n2)c1,10%,21%
CCOc1ccc(NC(=O)Cn2c(=O)n(CC(=O)NCc3ccccc3Cl)c(=O)c3sccc32)cc1,0%,0%
Cc1cccc(N2CCN(C(=O)CN3C(=O)COc4ccc(S(=O)(=O)N5CCC(C)CC5)cc43)CC2C)c1 (centres undefined),-13%,-8%
CC(=O)Nc1ccc(NC(=O)C2CCCCC2)cc1,33%[activator],-2%
COc1ccc(-c2noc(CSc3nc(N)cc(=O)[nH]3)n2)cc1,?,?
COC(=O)c1ccccc1NC(=O)CSc1n[nH]c(CC(C)C)n1,14%,25%
O=C(O)c1cc(F)cc(Br)c1,23%,2%
COc1ccc2[nH]c(=O)c(-c3noc(-c4cccs4)n3)cc2c1,0%,-4%
COc1ccc(Cl)cc1NC(=O)N1CCN(S(=O)(=O)c2ccc3c(ccn3C)c2)CC1,9%,16%
N#C/C(=C/c1ccc(OCc2ccc(Cl)cc2)cc1)c1nc2ccccc2s1,0%,7%
CCOC(=O)c1cnc2ccc(Cl)cc2c1Nc1ccccc1OCC,-1%,0%
COc1cccc(C2C=C(c3ccccc3)Nc3c(C(=O)Nc4ccccc4)cnn32)c1OC (centres undefined),-6%,5%
COc1cc(NS(=O)(=O)c2ccc(C)cc2C)cc2sc(NC(=O)c3ccccc3)nc12,-19%,291%[activator]
CC(C)CN(CCCNC(=O)c1cc(=O)[nH]c2ccc(S(=O)(=O)N3CCCC3)cc12)CC(C)C,-5%,-12%
CCc1cccc(C)c1NS(=O)(=O)c1cccc(C(F)(F)F)c1,-3%,10%
COc1ccc(Cl)cc1NS(=O)(=O)c1ccc2c(c1)NC(=O)CC(=O)N2,-18%,16%
COc1ccc(Nc2cc(C)nc(N3CCN(C(=O)Nc4cc(C)ccc4C)CC3)n2)cc1,-29%,-26%
COc1ccc2c(CN(C)CCOc3cc(C)cc(C)c3)cc(=O)oc2c1,4%,3%
CC(=O)c1cc(-c2ccccc2)n(CC(=O)NCCc2ccc(C)cc2)c1C,-3%,-9%
CCOc1ccc(C(=O)Nc2cccc(-c3nc4cc(Cl)cc(Cl)c4o3)c2)cc1,-4%,-6%
COC(=O)c1c(NC(=O)COc2c(C)cccc2C)sc2c1CCCC2,-18%,-8%
Cc1ccc(Cl)cc1-n1c(=O)c2sc3ccccc3c2n(CC(=O)NC2CCCC2)c1=O,-21%,-1%
Cc1c(Cl)cccc1NC(=O)N1CCSc2ncccc21,17%,21%
COc1ccc(N2C(=O)CS(=O)(=O)C23C(=O)N(Cc2ccccc2F)c2ccccc23)cc1Cl (centres undefined),-2%,10%
COc1ccc(S(=O)(=O)N2CCN(c3ccccc3C)CC2)cc1C,0%,56%[activator]
Cc1nnc(N2CCC(C(=O)NCCc3ccccc3)CC2)c2nn(-c3ccc(Cl)cc3)c(C)c12,2%,6%
COc1ccc(OC)c(NC(=O)CSC2=Nc3ccccc3C3=NC(CC(=O)NCc4ccc(F)cc4)C(=O)N23)c1 (centres undefined),-2%,50%[activator]
CCCCCn1nc(C(=O)Nc2cc(S(=O)(=O)N(C)C)ccc2OC)c2ccccc2c1=O,-10%,-4%
OC(COCc1ccc(Cl)cc1)Cn1nnc(-c2cccc(Cl)c2)n1 (centres undefined),8%,-1%
O=C(NCCC12CC3CC(CC(C3)C1)C2)c1ccc(Cl)cc1,21%,17%
CC(C)CC(=O)Nc1ccc(-c2nc3cc(Cl)ccc3o2)cc1,154%[activator],5%
CC(C)(C#N)C(=O)NCc1ccc(OCC(F)(F)F)cc1,-4%,-8%
CCCCCCn1nc(C(=O)Nc2ccc(OC)c(NC(C)=O)c2)c2ccccc2c1=O,21%,57%[activator]
CCC(Sc1nncn1CCOC)C(=O)c1ccc(OC)cc1 (centres undefined),0%,6%
CC1CCC(NC(=O)c2ccc3c(c2)N(Cc2cccc(Cl)c2)C(=O)c2ccccc2S3(=O)=O)CC1 (centres undefined),34%[activator],4%
CCN1CCN(CCCNC(=O)c2ccc3nc(Cc4ccc(OC)cc4)oc3c2)CC1,-24%,-12%
CC(C)CC1(C)OCC(CN2CCCCC2)O1 (centres undefined),-15%,-6%
Cc1nc2nc(CN)nn2c(C)c1CCC(=O)NC1CCCCC1,3%,6%
Cc1ccc2c(c1)-c1c(c(C(=O)NCc3ccc(F)cc3)nn1C)CS2,1%,31%[activator]
Cc1nn(-c2ccccc2)c2nc(C3CC3)cc(C(=O)Nc3cccc(F)c3)c12,15%,31%[activator]
COc1cccc2cc(C(=O)NCCOc3ccccc3F)c(=O)oc12,43%[activator],3%
Cc1oc(-c2ccccc2)nc1CC(=O)NCC(C)(C)N1CCOCC1,-5%,-8%
CCOc1ccc(CCNC(=O)Cn2ncc3c([nH]c4ccccc43)c2=O)cc1OCC,-11%,-10%
O=C(Nc1ccc(Cc2ccc(NC(=O)C(F)(F)F)c(Cl)c2)cc1Cl)C(F)(F)F,24%,-10%
CCc1ccc(C2C(C(=O)Nc3ccccc3)=C(C)Nc3nc(SCC(=O)c4ccc(C)cc4)nn32)cc1 (centres undefined),-6%,-14%
O=C(Nc1cccc(F)c1)c1ccc2snnc2c1,78%[activator],-22%
O=C(Nc1ccc2c(c1)CCCN2C(=O)c1cccs1)c1ccccc1Cl,-20%,?
CCCN1CCN(C(=O)Cn2c(-c3cccs3)cc3cc(F)ccc32)CC1,12%,8%
Cn1nnnc1SCCNCc1ccccc1OCc1ccccc1F,-4%,-4%
O=C(NCCCc1ccccc1)c1cc(=O)[nH]c2ccccc12,0%,17%
CCn1cc(C(=O)CSc2nnc(C)s2)c2ccccc21,0%,0%
Cc1ccc2oc(-c3ccc(Cl)cc3)cc(=O)c2c1,225%[activator],25%
COc1cccc(CNC(=O)c2cc(C)nc3c2c(C)nn3-c2cccc(F)c2)c1,3%,5%
CS(=O)(=O)Nc1ccc(C2=NN(C(=O)c3ccco3)C(c3ccc4nccnc4c3)C2)cc1 (centres undefined),11%,-3%
COc1ccc(-c2cc3ccc(O)c(CN4CCC(C)CC4)c3oc2=O)cc1,-12%,-2%

Additional results.
molecule,2A firefly,StopGo RLuc
COc1ccc2cc(-c3nc(-c4ccc(N(C)C)cc4)no3)c(=O)oc2c1,-10%,0%
O=C(NCCc1cccs1)C1CC=CCC1 (centres undefined),0%,12%
Cc1ccccc1NC(=O)COC(=O)c1nn(-c2ccccc2)c(=O)c2ccccc12,17%,5%
CC1CCCCC1NC(=O)c1ccc2ccccc2n1 (centres undefined),94%[activator],51%[activator]
O=C(CN1CCN(S(=O)(=O)Cc2ccccc2)CC1)Nc1cccc(Cl)c1,-13%,-4%
Cc1ccc(NCc2ccccc2C#N)c(F)c1,190%[activator],8%
Clc1ccccc1CNc1nc2ccccc2c2nc(-c3cccnc3)nn12,1%,-10%
O=C(Nc1ccc(O)cc1)c1cccc(S(=O)(=O)N2CCOCC2)c1,19%,12%
O=C(NCc1ccc(Cl)cc1)c1cc(-c2ccc(F)cc2)on1,0%,7%
O=C(c1nn(Cc2ccccc2)c(=O)c2ccccc12)N(Cc1ccccc1)C1CC1,-23%,109%[activator]
Cc1cc(-c2nnc(CN3CCN(c4cnn(-c5ccccc5)c(=O)c4Cl)CC3)o2)c(C)o1,-7%,-14%
CC(=O)Nc1nc2c(C)cc(NS(=O)(=O)c3ccc(F)cc3)cc2s1,7%,243%[activator]
COc1ccc(NC(=O)Cn2c(=O)c(CNc3ccccc3)cc3cc(OC)c(OC)cc32)cc1,77%[activator],4%
COC(=O)Nc1nc2ccc(C(=O)c3ccccc3)cc2[nH]1,57%[activator],38%[activator]
CCOc1ccc(N2CC(c3nc4ccccc4n3CCOc3ccccc3)CC2=O)cc1 (centres undefined),-16%,0%
O=C(COc1ccc2c(=O)c(Oc3ccc(-c4ccccc4)cc3)coc2c1)NCc1ccccc1,12%,5%
O=c1oc2ccccc2cc1-c1nnc(Nc2ccc(Cl)cc2Cl)s1,-2%,-13%
CCc1nc2ccc(C(=O)NCc3ccc(OC)c(OC)c3)cc2nc1CC,-3%,21%
COCC(=O)n1nc(NCc2ccc(Cl)cc2Cl)nc1NCc1ccc(Cl)cc1Cl,-6%,12%
COc1ccc(CCn2c(=O)c3ccccc3n(CC(=O)Nc3cccc(C)c3)c2=O)cc1OC,16%,4%
O=C(NCCc1ccccc1)c1ccc2c(c1)N(Cc1ccc(Cl)cc1)C(=O)c1ccccc1S2(=O)=O,88%[activator],34%[activator]
Cc1ccc(NC(=S)NCCCO)cc1,0%,3%
Cc1ccc(CSc2nnc([C@@H](N)C(C)C)o2)cc1,-7%,-10%
COc1ccc(CCNC(=O)Cc2c(C)c3ccc(O)c(C)c3oc2=O)cc1,25%,22%

Reprinted at random: 5 records from the list.
molecule,2A firefly,StopGo RLuc
Cc1ccc(NC(=S)NCCCO)cc1,0%,3%
O=C(NCCc1ccccc1)c1ccc2c(c1)N(Cc1ccc(Cl)cc1)C(=O)c1ccccc1S2(=O)=O,88%[activator],34%[activator]
CCc1nc2ccc(C(=O)NCc3ccc(OC)c(OC)c3)cc2nc1CC,-3%,21%
COCC(=O)n1nc(NCc2ccc(Cl)cc2Cl)nc1NCc1ccc(Cl)cc1Cl,-6%,12%
COc1ccc(CCn2c(=O)c3ccccc3n(CC(=O)Nc3cccc(C)c3)c2=O)cc1OC,16%,4%

Next results
molecule,2A firefly,StopGo RLuc
CC(C)(C)c1cnc(CN2CCCC2c2ccc[nH]2)o1 (centres undefined),10%,-8%
COCCn1cnc2c1c(=O)n(CC(=O)OCc1ccccc1F)c(=O)n2Cc1ccccc1,-6%,-10%
Cc1nc2cc(NC(C)C(=O)Nc3ccc(OC(F)(F)F)cc3)ccc2o1 (centres undefined),?,?
CCN(CC)C(=O)c1sc2c(c1C)c(=O)n(-c1ccc(Cl)c(Cl)c1)c(=O)n2Cc1cc(=O)n2ccccc2n1,2%,-2%
Cc1ccc(N2C(=O)CSC23C(=O)N(CC(=O)NC2CCCCC2)c2ccccc23)cc1C (centres undefined),-7%,-9%
COc1ccc(-c2nc(CSc3nnc(C)n4c3cc3oc(C)cc34)c(C)o2)cc1OC,1%,4%
Cc1ccc(Sc2nc3c(c(=O)[nH]c(=O)n3C)n2CCc2ccccc2)cc1,17%,9%
CCOc1ccc(NC(=O)CSc2nc(=O)[nH]c3c2CCC3)cc1,0%,-1%
COc1cccc(-n2c(=O)c3c(C)c(C(=O)N(C)C)sc3n(CC(=O)NCCc3ccc(OC)c(OC)c3)c2=O)c1,-24%,-17%
CC(C)C(=O)Nc1ccc(Cl)c(C(N)=O)c1,0%,5%
Cc1ccc(Sc2cccc(Cl)n2)cc1,0%,11%
CCCCn1cc(S(=O)(=O)c2ccccc2)c(=O)c2cc(CC)ccc21,15%,11%
CCOC(=O)c1cnn(-c2ccc(C(=O)Nc3ccc(Br)cc3)cc2)c1N,0%,16%
Cc1nc2n(c(=O)c1Cc1ccccc1)CN(Cc1cccnc1)CN2c1ccc(F)cc1,23%,56%[activator]
CCCc1c(OCCCCc2nn[nH]n2)ccc(C(C)=O)c1O,10%[11.5 µM],0%
O=c1cc(-c2ccccc2)c2ccc3c(c2o1)CN(Cc1ccccc1)CO3,-17%,157%[activator]
O=C(O)C1CCC(C(=O)O)CC1 (centres undefined),14%,6%
Cn1c(=O)c2c(nc(Cl)n2Cc2nc(-c3ccc(F)cc3)no2)n(C)c1=O,-11%,-7%
Cc1ccc(O)c(NC(=O)COCc2cc(-c3ccco3)on2)c1,1%,0%
CCCC(=O)c1ccc(O)cc1,17%,8%
CCN(CCCNC(=O)c1cc2c(=O)n(CC)c3ccccc3c2s1)Cc1ccccc1,0%,11%
O=C(Nc1cccc(O)c1)c1cc(=O)[nH]c2ccccc12,0%,-6%
Cc1ccc(NC(=O)c2oc3ccccc3c2NC(=O)c2nn(-c3cccc(C)c3)ccc2=O)cc1,55%[activator],14%
CCC(C)Nc1nc(-c2ccc3c(c2)NC(=O)CO3)cs1 (centres undefined),145%[activator],6%
O=C(CSc1oc(-c2ccco2)nc1S(=O)(=O)c1ccccc1)c1ccc(Cl)cc1,-9%,287%[activator]
O=C(Nc1ccc(CN2CCOC2=O)cc1)N1CCCC1,4%,-9%
COc1ccc(Br)cc1/C=C/C(=O)OC1CCCCC1=O (centres undefined),0%,1%
Cc1cc(NC(=O)CCS(=O)(=O)c2cc3c4c(c2)CCN4C(=O)CC3)ccc1Br,-14%,-12%
COc1ccc(CNC(=O)c2ccc(C3Nc4ccccc4S(=O)(=O)N3)cc2)cc1OC (centres undefined),0%,32%[activator]
CCOc1ccc(-c2nonc2NC(=O)c2oc3cc(C)c(C)cc3c2C)cc1OCC,2%,1%
COc1ccc(CCNC(=O)CCSCc2ccccc2Cl)cc1OC,-9%,6%
CC1CCN(C(C)CNC(=O)Cc2coc(-c3ccccc3)n2)CC1 (centres undefined),-8%,-9%
Fc1ccc(-c2nnc3sc(Cn4cccn4)nn23)cc1Br,14%,-25%

This is a subset, so the mix of outcomes need not match the whole.
